2A StopGo = High Throughput Screening for Foot and Mouth Disease Virus Antivirals; human cells with a luciferase reporter of 2A StopGo recoding; control for the full effect not named in the record; actives 1.2% (n = 410,000); Potency, µM (doses to about 57.9 µM), inactives show top-dose signal change, negative = less light; active = well fitted falling curve with a large enough effect; inconclusive = small, poorly fitted or top-dose-only effect; inactive = no such curve, though single readings can be large or run the other way; tested in HEK293T cells; further: on the % scale 0 is the no-effect control and ±100 the full control effect; nearly all actives have a fitted effect of over 45% in size; luciferase light after 4 h
Cruzain noTriton = qHTS Assay for Promiscuous and Specific Inhibitors of Cruzain (without detergent) | purified cruzain, Z-FR-AMC fluorescence, no detergent | Potency, µM, inactives show max response, negative = inhibition, hits mostly inhibitors | actives 2.3% (n = 200,000);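 further: plate controls were enzyme without inhibitor for no effect and buffer without enzyme for full effect; nearly all actives have a fitted effect of over 40% in size; top concentration of the series not given in the record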
Target sequence (P25779 123-467 limits assumed): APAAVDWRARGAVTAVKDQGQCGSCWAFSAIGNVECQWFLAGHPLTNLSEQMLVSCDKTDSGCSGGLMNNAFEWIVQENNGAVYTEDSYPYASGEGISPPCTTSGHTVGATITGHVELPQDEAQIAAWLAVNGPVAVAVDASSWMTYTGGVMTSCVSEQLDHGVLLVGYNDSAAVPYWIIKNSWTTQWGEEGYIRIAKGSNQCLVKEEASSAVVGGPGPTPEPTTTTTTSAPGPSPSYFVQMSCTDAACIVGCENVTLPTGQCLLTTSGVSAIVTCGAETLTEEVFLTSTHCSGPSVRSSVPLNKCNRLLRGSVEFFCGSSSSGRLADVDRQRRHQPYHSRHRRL
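Purified cruzain at 1.5 nM, pre-incubated 15 min with compound at room temperature in 100 mM sodium acetate pH 5.5, 5 mM DTT, 0.00005% Triton X-100. Reaction started with 2 uM Z-FR-AMC; AMC fluorescence increase over 60 s gives rate.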
SARS PLpro yeast = qHTS of Yeast-based Assay for SARS-CoV PLP | S. cerevisiae expressing SARS-CoV PLpro, growth rescue; control for the full effect not named in the record | Potency, µM (highest dose often 32.9 µM), for inactives: top-dose activity, positive = growth rescue | actives 0.19% (n = 330,000) | AID 485353, 2010; active means well fitted rising curve with a large enough effect; inconclusive means small, poorly fitted or top-dose-only effect; inactive means no such curve, though single readings can be large or run the other way; further: 0% is about no effect; nearly all actives have a fitted effect of over 55% in size; growth read by luminescence after 48 h
Cruzain inh Det = qHTS Assay for Promiscuous and Specific Inhibitors of Cruzain (with detergent) | Cruzipain (Trypanosoma cruzi), P25779 | AID 1478, 2009 | Potency, µM, inactives show max response, negative = inhibition, actives largely listed as inhibitors | purified cruzain, Z-FR-AMC fluorescence, 0.01% Triton | actives 0.43% (n = 200,000);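 further: plate controls were neutral wells for no effect and buffer without enzyme for full effect; nearly all actives have a fitted effect of over 40% in size; top concentration of the series not given in the record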
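Sodium acetate buffer (100 mM, pH 5.5) containing 5 mM DTT and 0.01% Triton X-100 hosted 1.5 nM cruzain and test compound for 15 min at room temperature. Cleavage of 2 uM Z-FR-AMC was then tracked by fluorescence.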
LASV entry inh = qHTS for Inhibitors of binding or entry into cells for Lassa Virus; Lassa virus pseudotype entry inhibition, cell reporter; control for the full effect not named in the record; Potency, µM (top dose mostly 37.9 µM), without a hit: at the top dose activity change, negative = inhibition, most hits filed as inhibitors; actives 1.2% (n = 300,000); AID 540256, 2011; active means well fitted inhibition curve with a large enough effect; inconclusive means small, poorly fitted or top-dose-only effect, or effect the other way; inactive means flat fitted curve, though single readings scatter; tested in HEK293 cells; further: on the % scale 0 is the no-effect control and ±100 the full control effect; nearly all actives have a fitted effect of over 50% in size; luciferase read-out
NS1 inh = qHTS Assay for Inhibitors of Influenza NS1 Protein Function; S. cerevisiae slowed by influenza A NS1, growth recovery by OD600; Potency, µM (highest dose often 46.1 µM), inactives show at the top dose activity, positive = more growth; actives 0.4% (n = 270,000); AID 2326, 2010; active means well fitted rising curve with a large enough effect; inconclusive means small, poorly fitted or top-dose-only effect; inactive means no such curve, though single readings can be large or run the other way; further: nearly all actives have a fitted effect of over 50% in size
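Growth recovery, yeast-based: influenza A NS1 expressed in S. cerevisiae causes slow growth, and suppressors are detected by OD600. The parent strain without NS1 is used as positive control.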
RE007 growth inh = qHTS Assay for Inhibitors of the HIV-1 protein Vpr | S. pombe RE007 Vpr strain, BacTiter-Glo ATP luminescence, 24 h; control for the full effect not named in the record | Potency, µM (doses to about 92.2 µM), without a hit: at the top dose activity change, negative = less growth | actives 0.21% (n = 360,000) | AID 651644, 2012; active = well fitted falling curve with a large enough effect; inconclusive = small, poorly fitted or top-dose-only effect; inactive = no such curve, though single readings can be large or run the other way;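 further: on the % scale 0 is the no-effect control and ±100 the full control effect; nearly all actives have a fitted effect of over 50% in size; the assay follows cell death caused by Vpr and the record does not say whether a fall means rescue or toxicity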
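Fission yeast strain RE007, carrying one chromosomally integrated HIV-1 vpr copy, was seeded at OD 0.01 in PMG+AL medium with 23 nL pinned compound. After 24 h at 30 °C and 99% humidity, viability was read by BacTiter-Glo luminescence.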
Marburg entry inh = qHTS for inhibitors of binding or entry into cells for Marburg Virus; Marburg virus pseudotyped entry inhibition, cell reporter; control for the full effect not named in the record; about a third of the inactives were read at about 46 µM; Potency, µM (doses to about 37.8 µM), without a hit: at the top dose activity change, negative = inhibition, usual class: inhibitors; actives 1.8% (n = 300,000); AID 540276, 2011; active = well fitted inhibition curve with a large enough effect; inconclusive = small, poorly fitted or top-dose-only effect, or effect the other way; inactive = flat fitted curve, though single readings scatter; tested in HEK293 cells; about a fifth of its hits are not listed in these tables; further: on the % scale 0 is the no-effect control and ±100 the full control effect; luciferase read-out
* marks the source's active call; other numbers are inactive results; [ ] = dose if it differs, or a comment. Unless noted, the call rests on the fitted dose curve; in most records, active means well fitted curve in the direction sought with a large enough effect; inconclusive means small, poorly fitted or top-dose-only effect, or another doubt; inactive means no such curve, though single readings can be large; an effect the other way counts as inactive or inconclusive. Potency means the concentration at half of the fitted maximal effect. Hits appear at their usual frequency; any-hit rate near 4.6%.

What do the screens show for `CCOC(=O)c1sc(C)c(C(=O)NCCCN2CCOCC2)c1N`?
2A StopGo: 5%; Cruzain noTriton: -1%; SARS PLpro yeast: 0%; Cruzain inh Det: 1.0%; LASV entry inh: 16%; NS1 inh: 3%; RE007 growth inh: 7%; Marburg entry inh: 0%[46.1 µM]

How did Cc1nn(Cc2ccccc2)c(Cl)c1C(=O)OC(C)C#N (stereo not drawn) do in these assays?
2A StopGo: inconclusive; SARS PLpro yeast: -1%; LASV entry inh: -1%; NS1 inh: 1%; RE007 growth inh: 50%; Marburg entry inh: inconclusive

How did Cc1cccc(C)c1NC1=NC(=S)N(c2ccc(C(=O)O)cc2)C12CCCCC2 do in these assays?
2A StopGo: -22%; SARS PLpro yeast: 1%; LASV entry inh: -13%[46.1 µM]; NS1 inh: 5%; RE007 growth inh: 9%; Marburg entry inh: 2%[46.1 µM]

Results for CCOC(=O)CNC(=O)Cn1cnc2c(nnn2-c2ccc(F)cc2)c1=O ?
2A StopGo: -10%; Cruzain noTriton: 4%; SARS PLpro yeast: -3%; Cruzain inh Det: -0.1%; LASV entry inh: 1%; NS1 inh: 5%; RE007 growth inh: -6%; Marburg entry inh: inconclusive

Results for CCOc1ccc(C(=O)NCC(c2ccco2)S(=O)(=O)c2ccc(C)cc2)cc1 (stereo not drawn) ?
2A StopGo: 28%; Cruzain noTriton: -13%; Cruzain inh Det: -3.6%; LASV entry inh: 8%[46.1 µM]

Results for CC(=O)c1cccc(NC(=O)c2ccc([N+](=O)[O-])o2)c1 ?
2A StopGo: 2%; LASV entry inh: inconclusive; RE007 growth inh: -6%; Marburg entry inh: inconclusive

How did O=C(NC(=S)NCCc1ccccc1)c1ccccc1F do in these assays?
2A StopGo: 30%; SARS PLpro yeast: 12%; LASV entry inh: -13%[46.1 µM]; NS1 inh: 0%; RE007 growth inh: -7%; Marburg entry inh: -29%[46.1 µM]

How did CCNC(=O)N1CCC(c2nc3ccccc3s2)CC1 do in these assays?
2A StopGo: -7%; SARS PLpro yeast: -1%; LASV entry inh: 4%[46.1 µM]; NS1 inh: -3%; RE007 growth inh: 0%; Marburg entry inh: 24%[46.1 µM]

Results for O=C(O)/C=C/C(=O)Nc1ccc(Cl)c(C(=O)O)c1 ?
2A StopGo: -10%; SARS PLpro yeast: 1%; LASV entry inh: 6%; NS1 inh: 0%; RE007 growth inh: -1%; Marburg entry inh: 20%

Results for CN(c1ccc(C(=O)N2CCCCC2)cc1)S(=O)(=O)c1cccs1 ?
2A StopGo: -13%; SARS PLpro yeast: 2%; LASV entry inh: -19%[46.1 µM]; NS1 inh: -6%; RE007 growth inh: 1%; Marburg entry inh: -4%[46.1 µM]

Results for COc1cc(NC(=O)c2cccs2)ccc1NC(=O)c1ccccc1Cl ?
2A StopGo: 12%; SARS PLpro yeast: -5%; LASV entry inh: inconclusive; RE007 growth inh: 6%; Marburg entry inh: 3%

How did O=C(COc1ccc(F)cc1)OCc1cc(=O)n2nc(-c3cccs3)sc2n1 do in these assays?
2A StopGo: 2%; Cruzain noTriton: -12%; Cruzain inh Det: -3.6%; LASV entry inh: 0%[46.1 µM]

Results for O=C(Cc1ccccc1)Nc1ccc2oc(-c3cccnc3)nc2c1 ?
2A StopGo: 30%[activator]; Cruzain noTriton: 17%; SARS PLpro yeast: 2%; Cruzain inh Det: 4.7%; LASV entry inh: -12%; NS1 inh: -5%; RE007 growth inh: -5%; Marburg entry inh: -15%

Results for Cc1c(Cl)cccc1NC(=S)N1CCC(N(C)CC2CCCO2)CC1 (stereo not drawn) ?
2A StopGo: -22%; SARS PLpro yeast: 2%; LASV entry inh: -26%[46.1 µM]; RE007 growth inh: -8%; Marburg entry inh: inconclusive

What do the screens show for `Cc1cccc(C(=O)NCC(=O)N2CCOCC2)c1`?
2A StopGo: 24%; SARS PLpro yeast: -4%; NS1 inh: 10%; RE007 growth inh: 8%

Results for CC1CCCCC1NC(=O)CN(C)S(=O)(=O)c1cccc2nsnc12 (stereo not drawn) ?
2A StopGo: -19%; Cruzain noTriton: -1%; SARS PLpro yeast: 1%; Cruzain inh Det: 1.1%; LASV entry inh: -7%; NS1 inh: 5%; RE007 growth inh: -4%; Marburg entry inh: -3%[46.1 µM]

What do the screens show for `Cc1ccc(-c2cn3c(n2)CCCC3)cc1`?
2A StopGo: 3%; Cruzain noTriton: 0%; SARS PLpro yeast: -2%; Cruzain inh Det: 5.4%; LASV entry inh: 6%; NS1 inh: 0%; RE007 growth inh: 5%; Marburg entry inh: inconclusive

What do the screens show for `O=C(O)CCN1CC2([N+](=O)[O-])C=CC(=O)C([N+](=O)[O-])(C1)C2CC(=O)c1ccccc1` (stereo not drawn)?
2A StopGo: -14%; Cruzain noTriton: -13%; SARS PLpro yeast: 3%; Cruzain inh Det: -9.3%; LASV entry inh: 2%; NS1 inh: 28%; RE007 growth inh: 7%; Marburg entry inh: -1%

How did CCc1ccccc1NC(=O)c1cnc(N2CCCCC2)c2ccccc12 do in these assays?
2A StopGo: 0%; Cruzain noTriton: inconclusive; Cruzain inh Det: -7.0%; LASV entry inh: -6%[46.1 µM]

What do the screens show for `COCCN(C(=O)c1ccco1)c1nnc(-c2ccc(OC)cc2)s1`?
2A StopGo: 43%[activator]; Cruzain noTriton: inconclusive; SARS PLpro yeast: -8%; Cruzain inh Det: -4.0%; LASV entry inh: -3%; NS1 inh: -23%; RE007 growth inh: 9%; Marburg entry inh: inconclusive

What do the screens show for `CN1CCN(c2ccc([N+](=O)[O-])cc2NC(=O)c2ccco2)CC1`?
2A StopGo: -7%; SARS PLpro yeast: -2%; LASV entry inh: -22%[46.1 µM]; NS1 inh: -2%; RE007 growth inh: 0%; Marburg entry inh: -29%[46.1 µM]

What do the screens show for `CCc1ccc2oc(C(=O)NCCc3ccc(OC)c(OC)c3)cc(=O)c2c1`?
2A StopGo: inconclusive; Cruzain noTriton: 10%; Cruzain inh Det: -4.9%; LASV entry inh: -22%[46.1 µM]; Marburg entry inh: -24%[46.1 µM]

What do the screens show for `COc1ccc(C(=O)Nc2cccc(S(=O)(=O)N3CCCC3)c2)cc1S(=O)(=O)N1CCOCC1`?
2A StopGo: -6%; SARS PLpro yeast: -3%; LASV entry inh: -4%[46.1 µM]; RE007 growth inh: -2%; Marburg entry inh: -7%[46.1 µM]

What do the screens show for `CCOP(=O)(c1ccccc1Cl)C1(O)CCCCC1` (stereo not drawn)?
2A StopGo: -12%; Cruzain noTriton: -1%; SARS PLpro yeast: -1%; Cruzain inh Det: 2.9%; LASV entry inh: 4%; NS1 inh: -2%; RE007 growth inh: 1%; Marburg entry inh: 4%[46.1 µM]

What do the screens show for `CSCCC(NC(=O)c1ccco1)C(=O)N(C)CC(=O)Nc1c(Cl)cccc1Cl` (stereo not drawn)?
2A StopGo: -18%; SARS PLpro yeast: 5%; LASV entry inh: -1%; RE007 growth inh: 0%; Marburg entry inh: 27%

What do the screens show for `CN(C)N1C(N)=C(C#N)C(c2ccccc2)C2=C1CCCC2=O` (stereo not drawn)?
2A StopGo: 1%; SARS PLpro yeast: 2%; LASV entry inh: 28%; RE007 growth inh: 9%; Marburg entry inh: 3%[46.1 µM]

How did Cc1cccc(NC(=O)NCC(F)(F)F)n1 do in these assays?
2A StopGo: -1%; Cruzain noTriton: 10%; SARS PLpro yeast: 2%; Cruzain inh Det: 5.4%; LASV entry inh: 2%; NS1 inh: -5%; RE007 growth inh: 21%; Marburg entry inh: inconclusive

How did O=C1c2ccccc2C(=O)N1c1nc2nccc(-c3ccccc3)n2n1 do in these assays?
2A StopGo: 11%; Cruzain noTriton: -1%; SARS PLpro yeast: 1%; Cruzain inh Det: -3.0%; LASV entry inh: -2%; NS1 inh: inconclusive; RE007 growth inh: 10%; Marburg entry inh: -14%

Results for CC(C)(C)c1ccc(-c2nc3n(c(=O)c2C#N)CCS3)cc1 ?
2A StopGo: 7%; SARS PLpro yeast: 1%; LASV entry inh: -21%; RE007 growth inh: 1%; Marburg entry inh: 2%[46.1 µM]

Results for Clc1cccc(NC2=NCCC2)c1 ?
2A StopGo: -12%; Cruzain noTriton: 5%; SARS PLpro yeast: 3%; Cruzain inh Det: 7.4%; LASV entry inh: 5%; NS1 inh: -5%; RE007 growth inh: -16%; Marburg entry inh: 7%

What do the screens show for `NC(=O)NCc1ccccc1`?
2A StopGo: -2%; Cruzain noTriton: -3%; SARS PLpro yeast: 0%; Cruzain inh Det: 0.8%; NS1 inh: -1%; RE007 growth inh: -1%

How did Brc1ccc2nc3c(n2c1)CCCC3 do in these assays?
2A StopGo: -7%; Cruzain noTriton: -3%; SARS PLpro yeast: 4%; Cruzain inh Det: 1.8%; LASV entry inh: 6%; NS1 inh: -39%; RE007 growth inh: 1%; Marburg entry inh: 7%

Results for O=C(Nc1ccc(F)c(Cl)c1)C1Cc2ccccc2CN1S(=O)(=O)c1ccc(F)cc1 (stereo not drawn) ?
2A StopGo: 3%; Cruzain noTriton: -2%; Cruzain inh Det: -7.3%; LASV entry inh: 0%[46.1 µM]; Marburg entry inh: -8%[46.1 µM]

How did Cc1ccn(CC(C)C(=O)O)n1 (stereo not drawn) do in these assays?
2A StopGo: -1%; SARS PLpro yeast: 0%; LASV entry inh: 13%; NS1 inh: 0%; RE007 growth inh: -20%; Marburg entry inh: -5%[46.1 µM]

How did CCOC(=O)C1CCCN(C(=O)c2cc3nc(-c4ccc5c(c4)OCO5)cc(C(F)(F)F)n3n2)C1 (stereo not drawn) do in these assays?
2A StopGo: 35µM*; Cruzain noTriton: inconclusive; SARS PLpro yeast: 10%; Cruzain inh Det: -4.7%; LASV entry inh: inconclusive; NS1 inh: 15%; RE007 growth inh: 7%; Marburg entry inh: inconclusive
